nsP2pro primary: CHIKV nsP2 protease inhibition, primary qHTS. Q8JUX6. FRET peptide cleavage, nsP2pro, fluorescence 1 h. Potency, µM (top dose mostly 24.9 µM), for inactives: at the top dose activity change, negative = inhibition, actives largely listed as inhibitors. 31,000 tested, 1.1% active. AID 1964107; active means well fitted inhibition curve with a large enough effect; inconclusive means small, poorly fitted or top-dose-only effect; inactive means no such curve, though single readings can be large or run the other way; also: nearly all actives have a fitted effect of over 60% in size; a reference inhibitor and vehicle were the controls
An asterisk follows results filed as active; i = inactive; u = inconclusive; & = joins results of further samples; [ ] = another dose, or the depositor's remark. % is scaled to controls: 0 for no effect and ±100 for the full control effect; potency is read from the fitted curve at half-maximal effect.

SMILES	nsP2pro primary
COc1ccc(C2(N(C)C(=O)c3ccc(NC(=O)c4ccco4)cc3)CCOCC2)cc1	14%
N#CNC(=O)c1ccc(-n2cccc2/C=C2\NC(=O)N(CC(=O)Nc3cccc(F)c3)C2=O)cc1	u
CC(C)=CCN1CC[C@]2(C)c3cc(O)ccc3C[C@H]1[C@H]2C	8%[39.2 µM]
COc1cc(Cl)c(C)cc1NC(=O)c1c(C)oc2nc(C)nc(N3CCCC3)c12	-21%
CCCC1CC(C(=O)NC(C(C)Cl)C2OC(SC)C(OP(=O)(O)O)C(O)C2O)N(C)C1 (stereo not drawn)	-8%[10 µM]
CCc1ccc(S(=O)(=O)N2c3ccccc3CC2c2nnc(C3CCOCC3)o2)cc1 (stereo not drawn)	5%
O=C(Nc1ccccc1)N[C@H]1CO[C@H]2[C@@H]1OC[C@@H]2Nc1nccc(-c2cccs2)n1	50%[39.2 µM]
COC(=O)c1cc2occc2n1Cc1ccc(F)cc1Cl	-28%
COc1ccccc1CNC(=O)Cc1c(C)c2c(cc(C)c3c(C)coc32)oc1=O	9%
CC(C)(N)C(=O)N[C@H](COCc1ccccc1)C(=O)N1CCC2(CC1)CN(S(C)(=O)=O)c1ccccc12	11%
O=C(Nc1cccc2c1CCCC2)N1CCOc2ccc(Cl)cc21	-7%
O=C(O)COCC(=O)N1C[C@@H]2C[C@H](C1)c1ccc(-c3cc4ccccc4s3)c(=O)n1C2	1%
CCOC(=O)C1=C(C)N=C2SCCC(=O)N2C1c1ccc(OCc2ccccc2)c(OC)c1 (stereo not drawn)	-16%
Cc1ccc2nc(CN3CCN(S(=O)(=O)c4ccccc4)CC3)oc2c1	-22%
CCOC(=O)c1cc(-c2ccc(F)cc2)n(CCC(=O)NC2CCC(C)CC2)c1C (stereo not drawn)	-23%

An excerpt from the list above, for reference:
SMILES	nsP2pro primary
O=C(Nc1cccc2c1CCCC2)N1CCOc2ccc(Cl)cc21	-7%
O=C(O)COCC(=O)N1C[C@@H]2C[C@H](C1)c1ccc(-c3cc4ccccc4s3)c(=O)n1C2	1%
CCOC(=O)C1=C(C)N=C2SCCC(=O)N2C1c1ccc(OCc2ccccc2)c(OC)c1 (stereo not drawn)	-16%
Cc1ccc2nc(CN3CCN(S(=O)(=O)c4ccccc4)CC3)oc2c1	-22%
CCOC(=O)c1cc(-c2ccc(F)cc2)n(CCC(=O)NC2CCC(C)CC2)c1C (stereo not drawn)	-23%

Back to the main list, starting 5 compounds before the break.
SMILES	nsP2pro primary
O=C(Nc1cccc2c1CCCC2)N1CCOc2ccc(Cl)cc21	-7%
O=C(O)COCC(=O)N1C[C@@H]2C[C@H](C1)c1ccc(-c3cc4ccccc4s3)c(=O)n1C2	1%
CCOC(=O)C1=C(C)N=C2SCCC(=O)N2C1c1ccc(OCc2ccccc2)c(OC)c1 (stereo not drawn)	-16%
Cc1ccc2nc(CN3CCN(S(=O)(=O)c4ccccc4)CC3)oc2c1	-22%
CCOC(=O)c1cc(-c2ccc(F)cc2)n(CCC(=O)NC2CCC(C)CC2)c1C (stereo not drawn)	-23%
Cc1ccc2nc(COc3ccccc3NC(=O)c3ccccc3F)cc(=O)n2c1	-6%
COC(=O)CNC(=O)NCCc1ncc(C)n1C1CCCCCC1	2%
Cc1cccc(-c2ccc3ncnc(NCc4cc(C)cs4)c3c2)c1	-3%
COc1cccc2c1OCC(C(=O)N1CCC(c3noc(C)n3)CC1)C2 (stereo not drawn)	i
COC1CN(c2cccc(F)c2)C12CCN(C(=O)NCC(C)C)CC2 (stereo not drawn)	-6%
CCNC(=O)Nc1ccc([C@H]2OCC(=O)N(Cc3scnc3C)[C@@H]2CO)cc1	-11%[39.2 µM]
CCn1nnc2c(N3CCOCC3)nc(-c3ccc(NC(=O)Nc4ccc(C(=O)N5CCN(C)CC5)cc4)cc3)nc21	63%[activator]
CCOc1ccc(CCNC(=O)c2ccc(N3N=C(C)CC3=O)cc2)cc1OCC	i
O=C1CCN(C(=O)c2cc3ccccc3[nH]2)CCCCCCN1	-2%
COc1ccc(-c2cn(C[C@H]3CC4CCN3C[C@@H]4C(=O)NC3CCCCC3)nn2)cc1 (stereo partly drawn)	-1%[39.2 µM]
C/C(=C/C=C\C=C\Cc1cnco1)[C@@H](O)C(C)(C)C(N)=O	u
Cc1ccc2nc3sc(C(=O)NC4CCCCC4)cc3cc2c1	4%
CCOc1ccc(NC(=O)CCS(=O)(=O)c2cc3c4c(c2)CCN4C(=O)CC3)cc1	-18%
CC(C)(C)c1ccnc(N[C@H]2CO[C@H]3[C@@H]2OC[C@@H]3NC(=O)c2ccco2)n1	-8%[39.2 µM]
CCn1cc2nc(SCC(=O)Nc3ccc(OC)c(Cl)c3)n(Cc3ccc(OC)cc3)c(=O)c2n1	-5%
CC1=C2C[C@H]3O[C@@]3(C)CCC3O[C@@]3(C)C[C@@]2(O)OC1=O (stereo partly drawn)	-3%
Cc1noc(C)c1-c1cc(-c2ccncc2)cn2cncc12	i
Cc1cnc(N2CC3CCC(C2)N3CC(F)(F)F)c([N+](=O)[O-])c1	u
Cc1nc(CCNc2ncnc3ccc(-c4ccc5c(c4)OCO5)cc23)cs1	i
Cn1c2cc(B(O)O)sc2c2cnn(Cc3ccc(F)cc3F)c(=O)c21	i
CNC(=O)COC(=O)N1CCC(CCc2ccc(Cl)cc2)CC1	-9%
CC(C)c1ccc(N2C(=O)N[C@@H]3CCN(C(=O)C4CCCC4)[C@@H]3C2=O)cc1	-27%[39.2 µM]
N#Cc1cccc([C@@H](NCC2CC2)c2ccc(F)c(NC(=O)c3cc(C(F)(F)F)nn3-c3cccc(CN)c3)c2)c1	56%[activator]
CCn1c(=O)c2ccnn2c2ccc(C(=O)O)cc21	2%
CC(=O)Nc1ccc(NC(=O)CCC(=O)c2ccc(C)cc2)cc1	-7%
Cc1ccc(NC(=O)c2cnn3c(-c4ccccc4)cc(C)nc23)cc1	i
CCNC(=O)N[C@@H]1C=C[C@@H](c2c(C)nn(-c3ccc(C(C)C)cc3)c2C)C1	-4%[39.2 µM]
CC(C)Cc1cc(C(=O)N2CCc3[nH]nc(-c4ccccc4)c3C2)nc(=O)[nH]1	-6%
CN1C(=O)[C@H]2CN(Cc3ccsc3)C[C@H]2C1=O	-7%
Cc1ccc(-n2ncc(C(=O)NCCCN3CCCCC3)c2C2CCN(C(=O)OC(C)(C)C)CC2)c(C)c1	0%

Look-ups from the results shown:
Under nsP2pro primary, CC(C)Cc1cc(C(=O)N2CCc3[nH]nc(-c4ccccc4)c3C2)nc(=O)[nH]1 has -6%
Under nsP2pro primary, CCNC(=O)N[C@@H]1C=C[C@@H](c2c(C)nn(-c3ccc(C(C)C)cc3)c2C)C1 has -4%[39.2 µM]
Under nsP2pro primary, CC1=C2C[C@H]3O[C@@]3(C)CCC3O[C@@]3(C)C[C@@]2(O)OC1=O (stereo partly drawn) has -3%
Under nsP2pro primary, CCn1c(=O)c2ccnn2c2ccc(C(=O)O)cc21 has 2%

Other results.
SMILES	nsP2pro primary
COc1ccc(OCC(=O)N2CCN(C(=O)c3cccc(OC)c3OC)CC2)cc1	-19%
COc1ccc(-c2cc(C(=O)NCc3ccc(F)cc3)c3c(-c4ccc(F)cc4)[nH]nc3n2)cc1OC	-8%
CC(C)N(Cc1nccn1C)C(=O)c1cc(Cn2cnc3ccccc32)[nH]n1	i
Cc1cc(C(=O)N[C@H]2[C@H](O)[C@H](O)C[C@@H]2c2ccc(N3CCOCC3)nc2)n(C)n1	-9%[39.2 µM]
CC(CCC1(O)OC2CC3C4CC=C5CC(O[C@@H]6O[C@H](CO)[C@@H](O[C@@H]7O[C@H](CO)[C@@H](O)[C@H](O)[C@H]7O)[C@H](O)[C@H]6O[C@@H]6O[C@@H](C)[C@H](O)[C@@H](O)[C@H]6O)CCC5(C)C4CCC3(C)C2C1C)CO[C@@H]1O[C@H](CO)[C@@H](O)[C@H](O)[C@H]1O (stereo partly drawn)	-1%[5.1 µM]
CN(Cc1ccc(-c2ccccc2)cc1)C(=O)C1CC1	-15%[39.2 µM]
Cc1cc(C)nc(NC(=S)N2CCN(c3ncnc4ccccc34)CC2)c1	-5%
CCCCCN(C)CCC(O)(P(=O)(O)O)P(=O)(O)O	-11%[2.68 µM]
COc1cccc(-c2nnc3n2N=C(c2c(OC)cccc2OC)CS3)c1OC	-7%
Cc1cc(SCC(=O)NCc2ccccc2Cl)nc(=O)[nH]1	-19%
C=C1C(=O)O[C@@H]2C[C@]3(C)[C@@H](CCC(C)=O)[C@@H]3C[C@H]12	17%
Cc1nc(NCc2ccccc2)c2nc(-c3ccccc3)n(CCN(C)C)c2n1	2%
C[C@]12C=CC(=O)C=C1CC[C@@H]1[C@@H]2[C@@H](O)C[C@@]2(C)[C@H]1CC[C@]2(O)C(=O)COC(=O)CCC(=O)O	10%
O=C(O)CC[C@@H]1CN(C(=O)c2ccc(CO)o2)CC[C@@H]1N1CCOCC1	i
COc1ccc(C(=O)OC2C3C=COC(OC4OC(CO)C(O)C(O)C4O)C3C3(CO)OC23)cc1OC (stereo not drawn)	0%[10 µM]
COCc1cn(C[C@H]2C[C@@H]3CCN2C[C@@H]3C(=O)NCc2ccco2)nn1	u
CC(=O)O[C@@H]1[C@H](O[C@@H]2O[C@@H](CO)[C@H](O)[C@H]2O)[C@@H](O[C@@H]2O[C@@H](C)[C@H](O[C@@H]3OC[C@@H](O)[C@H](O)[C@H]3O)[C@@H](O)[C@H]2O)[C@H](OC(=O)[C@]23CCC(C)(C)C[C@H]2C2=CCC4[C@@]5(C)CC[C@H](O[C@@H]6O[C@H](C(=O)O)[C@@H](O)[C@H](O)[C@H]6O[C@@H]6O[C@H](CO)[C@H](O)[C@H](O)[C@H]6O)[C@@](C)(C=O)C5CC[C@@]4(C)[C@]2(C)CC3)O[C@@H]1C (stereo partly drawn)	-14%[5.1 µM]
NC1(C(=O)N[C@@H](CCO)c2ccc(Cl)cc2)CCN(c2ncnc3[nH]ccc23)CC1	32%&18%
CCn1cc(C(=O)N2CCN(c3ccccc3F)CC2)c(=O)c2cc(S(=O)(=O)N(C)C)ccc21	-4%
CCOc1ccc(CNC(=O)c2ccc3oc(=O)n(Cc4ccccc4)c3c2)cc1	-12%
CC(=O)O[C@@H]1[C@H](O[C@@H]2O[C@@H](CO)[C@H](O)[C@H]2O)[C@@H](O[C@@H]2O[C@@H](C)[C@H](O[C@@H]3OC[C@@H](O)[C@H](O)[C@H]3O)[C@@H](O)[C@H]2O)[C@H](OC(=O)[C@]23CCC(C)(C)C[C@H]2C2=CCC4[C@@]5(C)CC[C@H](O[C@@H]6O[C@H](C(=O)O)[C@@H](O)[C@H](O)[C@H]6O[C@@H]6O[C@H](CO)[C@H](O)[C@H](O)[C@H]6O)[C@@](C)(C=O)C5CC[C@@]4(C)[C@]2(C)C[C@H]3O)O[C@@H]1C (stereo partly drawn)	u
O=C1CCCC2=C1C(c1[nH]ncc1Cl)NC(=S)N2 (stereo not drawn)	-4%
CSc1ccc(-c2nc3c([nH]2)CC(C)(C)CNC3=O)cc1	i
CN(C)c1nc2c(c(=O)[nH]1)CCN(Cc1ccsc1)CC2	i
Cc1ccc(OCC(=O)N2CCN(Cc3ccc(=O)n(C)c3)CC2)cc1	-6%
CCSc1nc2c(c(=O)[nH]c(=O)n2C)n1CC(O)COc1ccc(Cl)cc1 (stereo not drawn)	-13%
C=C[C@H]1CN2CC[C@H]1C[C@@H]2[C@@H](OC(=O)OCC)c1ccnc2ccc(OC)cc12	-1%
COc1ccccc1CNc1nc2c(S(=O)(=O)c3ccc(C)c(C)c3)nnn2c2ccc(Cl)cc12	-11%
O=C1c2ccccc2C(=O)N1Cc1cccnc1	-3%
COc1ccc(S(=O)(=O)N2C[C@@H]3C[C@H](C2)c2ccc(NS(=O)(=O)c4cccc(F)c4)c(=O)n2C3)cc1	24%
O=C(CC1CC1)N1C[C@H]2OC(=O)N(CCc3cccc(Cl)c3)[C@H]2C1	i
CSc1cccc(-n2nnc(-c3nsc(NC(=O)c4cccs4)n3)c2C)c1	-6%
COc1ccc2oc(NC3=NC(c4[nH]ncc4Cl)C4=C(CCCC4=O)N3)nc2c1 (stereo not drawn)	i
COCCN1CCCC(c2[nH]ccc2C(=O)NCCc2nc3ccccc3[nH]2)C1 (stereo not drawn)	3%
c1ccc(-c2ccc(CN3CCOC[C@H](Oc4cnccn4)C3)cc2)cc1	-7%[39.2 µM]
O=C(Nc1ccccc1)N(Cc1cccs1)c1ccc(F)cc1	-28%
O=C1Cc2cc(S(=O)(=O)N3CCN(c4ccc(Br)cc4)CC3)ccc2N1	-22%[39.2 µM]
O=C(NCCc1ccc(F)cc1)C(=O)NCC(c1ccc2c(c1)OCO2)N1CCOCC1 (stereo not drawn)	-22%
COc1ccccc1N1CCN(CCN(C(=O)C2CCCCC2)c2ccccn2)CC1	-13%
COc1cc(-c2csc(N3CCC(C(N)=O)CC3)n2)cc(OC)c1OC	0%
CC(C)(C)OC(=O)Cc1nnc(-c2nc3ccccc3[nH]2)o1	-1%
COC(=O)c1c(C)oc2ccc(N(C(=O)c3ccncc3)S(=O)(=O)c3ccc(Br)cc3)cc12	-8%
CCCCCCCCC(=O)NCc1ccc(O)c(OC)c1	-4%
CCCCCCCCOC(=O)c1cc(O)c(O)c(O)c1	u
CO[C@@H]1CO[C@H]2[C@@H]1OC[C@@H]2NC(=S)Nc1ccccc1	-8%[39.2 µM]
O=C(c1cccnc1)N1CCC2(CC1)CC(N(C(=O)c1ccccc1)C1CC1)CCO2 (stereo not drawn)	-5%
Cc1ccc2c(CC(=O)Nc3c(C(=O)c4ccc(F)cc4)oc4ccccc34)coc2c1C	-13%
C=CC(C)(O)CC[C@H]1C(=C)CCC2[C@](C)(C(=O)O)CCC[C@@]21C (stereo partly drawn)	-7%
Cc1ccccc1N1CC(C(=O)Nc2ccc(Br)cc2)CC1=O (stereo not drawn)	-17%
CCCCOC(=O)c1ccc(O)cc1	11%
CC(O)COc1ccccc1 (stereo not drawn)	-2%
N#C/C(=C/c1ccc(O)c(O)c1)C(N)=S	u
COCc1nnc2n1CCC(NC(=O)C1CC=CC1)CC2 (stereo not drawn)	-6%
CCCSc1ncc(Cl)c(C(=O)Nc2ccc(CC)cc2)n1	-87%

The list is partial, so the mix of outcomes need not match the whole.
